GIV-Gai inh – inhibitors of GIV peptide binding to Galpha-i3, primary screen, biochemical, fluorescence polarization, FITC-GIV GBA peptide, rat Galphai3. Guanine nucleotide-binding protein G(i) subunit alpha-3 (Rattus norvegicus), P08753. 90 min; active compounds read low; scaled: aluminum fluoride 0%, vehicle 100%. percent of control (FP), % (test concentration not listed). 210,000 tested, 0.42% active. AID 1224905, 2016;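 active = replicate mean at 85% of control or lower, very high polarization wells dropped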;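 also: lower values mean more displacement of the GIV peptide from Galpha-i3; wells of about 15 µL received 100 nL stock; the first replicate is given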
Target sequence (P08753 whole entry, looked up): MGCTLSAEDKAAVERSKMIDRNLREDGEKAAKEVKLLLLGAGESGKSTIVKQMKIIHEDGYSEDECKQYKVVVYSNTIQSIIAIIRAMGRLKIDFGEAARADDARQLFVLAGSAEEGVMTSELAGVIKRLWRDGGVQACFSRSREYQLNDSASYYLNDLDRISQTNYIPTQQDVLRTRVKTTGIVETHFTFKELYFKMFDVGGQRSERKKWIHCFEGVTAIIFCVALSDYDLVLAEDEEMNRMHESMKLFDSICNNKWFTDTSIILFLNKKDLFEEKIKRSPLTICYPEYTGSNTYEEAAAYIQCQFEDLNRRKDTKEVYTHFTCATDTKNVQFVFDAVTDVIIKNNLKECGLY
Sa growth inh – S. aureus growth inhibition at 42 and 30 °C, primary screen, LtaS inhibitor project, RN4220, two temperatures; OD600, 20 h, 42 °C; active compounds read low; 170,000 tested, 0.53% active; relative growth, % (concentration not given with the values);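 active = growth at 42 °C up to 50% and 20 or more points under that at 30 °C, or under 10% at both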;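 also: 300 nL library stock went into each well; scaled to the means of positive and negative controls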
HCMV UL50-53 inh – inhibitors of HCMV UL50-UL53 interaction, biochemical, HTRF. HCMV UL50-UL53 nuclear egress complex (human cytomegalovirus). normalized percent inhibition. inhibition, % (test concentration not listed). 190,000 tested, 0.15% active;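 active = both replicates at 50% or more, plus weaker picks with an unusually low signal ratio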;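 also: stock transfer was 100 nL into about 20 µL; 0% = negative control wells and 100% = wells with untagged competitor protein; inactives centre near -12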
Sa growth inh second temp – further read-out of Sa growth inh, marked with its call; relative growth, %; measured here: growth at 30 °C;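 optical density after 20 h as mean of two plates; 100% = untreated growth and lower means inhibition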
Active calls of the source: *; / = not tested or not shown; & = joins results of further samples.

Start of the listing, in advance:
SMILES	GIV-Gai inh	Sa growth inh	Sa growth inh second temp	HCMV UL50-53 inh
CC(=O)Nc1ccccc1-c1nc2ccccc2nc1OCC(=O)c1ccc(Cl)cc1	101	107	81	-24
O=S1(=O)CCC(N(S(=O)(=O)c2ccc(F)cc2)S(=O)(=O)c2ccc(Cl)cc2)C1 (stereo unspecified)	/	85	83	-10
c1ccc(CSc2nnc3ccc(-c4ccc5c(c4)OCO5)nn23)nc1	103	96	82	-19
COc1ccc(C(=O)NCCc2c[nH]c3ccccc23)cc1	97	/	/	-9
O=C1CN2Cc3c(ccc(Cl)c3Cl)N=C2N1	98	94&88&101	89&81&100	-37&-4&13&-91

The list itself, previewed entries included:
SMILES	GIV-Gai inh	Sa growth inh	Sa growth inh second temp	HCMV UL50-53 inh
CC(=O)Nc1ccccc1-c1nc2ccccc2nc1OCC(=O)c1ccc(Cl)cc1	101	107	81	-24
O=S1(=O)CCC(N(S(=O)(=O)c2ccc(F)cc2)S(=O)(=O)c2ccc(Cl)cc2)C1 (stereo unspecified)	/	85	83	-10
c1ccc(CSc2nnc3ccc(-c4ccc5c(c4)OCO5)nn23)nc1	103	96	82	-19
COc1ccc(C(=O)NCCc2c[nH]c3ccccc23)cc1	97	/	/	-9
O=C1CN2Cc3c(ccc(Cl)c3Cl)N=C2N1	98	94&88&101	89&81&100	-37&-4&13&-91
CN1CCN(CC(O)COC(C(F)(F)F)C(F)(F)F)CC1 (stereo unspecified)	/	99	94	0
Cc1nn(CC(=O)O)c2c1C1C(C2)C1(C)C (stereo unspecified)	101	96	96	-30
C=C(C)C(=O)Nc1cc(NC(=O)C(=C)C)cc(C(=O)O)c1	97	104	77	-12
Nc1c(NC2CCCCC2)c2ccccc2oc1=O	99	107	82	-42
Cc1cccc(OCC(=O)Nc2c(C)ccc3nsnc23)c1C	106	93	93	-18
Cc1ccc(CSC2=NCCCN2)cc1C	109	117	98	5
CC(C)c1ccc(N(C)S(=O)(=O)c2ccsc2-c2nc(-c3ccc4c(c3)OCO4)no2)cc1	102	/	/	-11
COc1ccc(NC(=O)C(Cc2ccccc2)n2cccc2)c(OC)c1 (stereo unspecified)	99	95	79	-16
CCOc1ccc2nc(N3CCN(C(=O)c4ccc5c(c4)CCCC5)CC3)sc2c1	100	110	92	/
COc1ccc(NC(=O)Nc2ccc(OC)c(OC3CCCC3)c2)cc1OC1CCCC1	105	95	97	-7
N#CC(C(N)=O)=C1CCCCC1	/	80	80	-25
CCNC(=O)c1nn(-c2ccccc2)nc1CO	106	/	/	-20
O=C(Cn1cc(S(=O)(=O)Cc2cccc(Cl)c2)c2ccccc21)Nc1ccccc1Cl	99	82	80	/
CCc1c(C)nc(-n2nc(C)cc2NC(=O)c2ccc(C)c(C)c2)[nH]c1=O	97	/	/	3
COc1ccccc1-c1nn2c(C)nnc2s1	108	84	80	-20
O=C(CN1C(=O)C2(OCCCO2)c2ccccc21)NCCc1ccccc1	99	106	89	/
COc1ccc(S(=O)(=O)N2Cc3ccccc3CC2C(=O)Nc2ccc(C)cc2C)cc1OC (stereo unspecified)	101	104	79	-28
Cc1cc(C(=O)CSc2nncn2C)c(C)n1CC1COc2ccccc2O1 (stereo unspecified)	/	84	80	-23
Cc1ccc(S(=O)(=O)N2CCCc3cc(NS(=O)(=O)c4cc(C)ccc4C)ccc32)cc1	101	106	91	/
O=C(Nc1ccc2c(c1)ncn2C1CCCCC1)c1cc2ccccc2o1	/	74	78	6
COc1nc(C)[nH]c(=O)c1N	/	105	89	1
C/C(Cc1nc2ccccc2[nH]1)=N/NC(=O)c1ccccc1	106	120	80	5
COc1ccc2c(c1)c1c(c(=O)n(Cc3ccccc3)c(=O)n1C)n2C	98	93	81	-19
C=CCn1c(SCC(=O)O)nnc1-c1ccc2c(c1)OCO2	95	106	94	/
Cc1nn(C)cc1CN1CCN(C(=S)NCCc2ccccc2)CC1	108	103	98	5
CCOC(=O)c1ccc2c(c1)C(=O)N(C1CCCCC1)C2=O	105	105	96	/
CCCCCCOc1ccc(Cn2cccc2C2=NC(CC)CO2)cc1 (stereo unspecified)	104	/	/	-26
Cc1ccc(NC(=O)CSc2nc3c(c(=O)[nH]2)CCC3)cc1Cl	102	99	88	-30
CC(=O)c1ccc(NC(=O)c2ccc(CN3C(=O)CCn4nc(C)cc43)cc2)cc1	98	78	83	/
COc1ccc(OC)c(CN2CCN(S(=O)(=O)c3ccccc3)CC2)c1	101	82	92	/
CCOC(=O)C1CCCN(S(=O)(=O)c2ccc(-c3ccc(=O)[nH]n3)s2)C1 (stereo unspecified)	96	91	83	-40
CC(C)(C)NC(=O)N1CCN(c2cc(C(F)(F)F)ccn2)CC1	107	106	102	-16
O=C1CN(C(=O)c2ccc3c(c2)OCO3)c2ccccc2N1	/	93	93	-23
O=C(O)C1CCN(C(=O)c2ccccc2C(=O)N2CCC(C(=O)O)CC2)CC1	102	96	92	-12
COc1ccc(NC(=O)c2ccc(O)cc2)cc1	/	100	98	10
Cc1[nH]c(C)c(S(=O)(=O)N2CCC(C(=O)Nc3ccc(Cl)cc3)CC2)c1C(=O)N1CCCC1	100	/	/	3
COc1ccc(CCNC(=O)C(=O)NCC(c2cccs2)S(=O)(=O)c2ccccc2)cc1 (stereo unspecified)	106	106	102	/
Cc1ccc(NC(c2nnc(-c3ccccc3)o2)c2ccccc2F)c(Cl)c1 (stereo unspecified)	100	101	85	-5
C=C1COC(=O)N1Cc1ccccc1Cl	101	116	95	-9
CCOc1ccc(-c2csc3ncnc(Nc4cccc(O)c4)c23)cc1	106	87	83	-36
CCC(C)NC(=O)CN1C(=O)C(C)(C)c2cc(S(=O)(=O)N3CCCC3)ccc21 (stereo unspecified)	105	/	/	-6
CNC(=S)N1CCc2ccccc2C1	103	104	55	-9
CCCC(=O)N(c1cccc(Cl)c1)C1C=CS(=O)(=O)C1 (stereo unspecified)	99	107	88	/
CCCCCn1c(=O)[nH]c2cc(C(=O)Nc3ccc(OC)c(OC)c3)ccc2c1=O	104	101	85	-9
Oc1c(C(c2ccccc2Cl)N2CCCCC2)ccc2cccnc12 (stereo unspecified)	95	88	70	/
The list goes on.
SMILES	GIV-Gai inh	Sa growth inh	Sa growth inh second temp	HCMV UL50-53 inh
O=C(c1ccc2nc(N3CCOCC3)sc2c1)N1CCCC1	105	91	84	/
Cc1cc2c(cc3c(SCC(=O)Nc4cccc(Cl)c4C)nnc(C)n32)o1	118	81	102	/
Cc1noc2ncnc(N3CCC(C(=O)NCc4ccccc4)CC3)c12	101	/	/	3
COC(=O)c1sc(N2CCCC2)c(S(=O)(=O)C(C)C)c1N	105	102	84	1
CC1=C(C(=O)N2CCCCC2)C(c2ccc(N(C)C)cc2)C2=C(CCCC2=O)N1 (stereo unspecified)	101	84	76	5
COc1ccc(S(=O)(=O)c2cn(C)c3ccccc3c2=O)cc1	106	81	84	-20
COc1ccc(Cl)cc1NC(=O)Cn1c(=O)c(-c2ccccc2NC(C)=O)nc2ccccc21	104	117	88	22
CCCc1nc2ccccc2c(C(=O)OCC(=O)NC2CC2)c1CC	/	94	90	-12
O=S(=O)(N/N=C/c1ccsc1)c1ccc(Cl)s1	106	99	90	-7
CC(C)NC(=O)c1ccccc1CCc1ccccc1	/	77	96	9
Cc1ccc(C)c(NC(=O)CSc2nc(=O)n(CCN(C)C)c3c2CCC3)c1	100	101	97	/
CC(C)(C)C(=O)Cn1c(=O)n(-c2ccc(Cl)cc2)c(=O)c2c3c(sc21)CCCC3	108	99	95	-10
CCOC(=O)N1CCC(NC(=O)CSc2cc(C)nc3c(-c4ccccc4OC)c(C)nn23)CC1	109	84	85	/
CCOc1ccc(NS(=O)(=O)c2cc(C(=O)N3CCN(c4ccc(C)cc4C)CC3)n[nH]2)cc1	102	/	/	-1
CC(C)NC(=O)C1CC(=O)N(Cc2ccccc2)C1 (stereo unspecified)	/	97	98	0
O=C(c1ccc(Cl)cc1)N1CCC(C(F)(F)F)CC1	100	100	102	-2
CCOc1ccc(NC(=O)Cn2cc(C(=O)c3ccc(CC)cc3)c(=O)c3ccc(C)nc32)cc1	107	97	96	/
Cc1nn(C(=O)C(C)(C)C)c(C)c1S(=O)(=O)N1CCOCC1	106	/	/	-6
CCCN(CCC)C(=S)NC1CC2C=CC1C2 (stereo unspecified)	106	92	86	-30
COc1ccc(C2=NN(C(=O)CCl)C(c3nc4ccccc4[nH]3)C2)cc1 (stereo unspecified)	102	/	/	-8
CCCN1CCCn2c1nc1c2c(=O)[nH]c(=O)n1C	95	/	/	-22
CNCc1c(C)nn(C2CCS(=O)(=O)C2)c1C (stereo unspecified)	/	100	96	-10
COc1ccc(Nc2cc(C(=O)NC3CCC(C)CC3)c3ccccc3n2)cc1OC (stereo unspecified)	102	104	90	-17
COc1ccc(-c2nc3c(s2)CN(C(=O)Nc2ccc(C)cc2C)CC3)cc1	101	/	/	-13
Clc1cccc(-n2ncc3c(SCCN4CCCCC4)ncnc32)c1	106	99	76	-23
Cc1nn(Cc2ccccc2Cl)c2sc(C(=O)Nc3nccs3)cc12	/	111	76	-2
COc1ccc(OC)c(CNC(=O)c2cc3cc4ccc(OC)cc4nc3o2)c1	101	100	98	7
CC1CN(C(=O)CSc2ncnc3ccccc23)CC(C)O1 (stereo unspecified)	/	94	85	-33
CN(C)c1ccc(C=Nc2nonc2-c2ccccc2)cc1	121	107	110	-14
C/C=C/C(=O)OCc1cc(=O)oc2cc(O)ccc12	/	105	86	-33

Some of the entries above, set out differently.
structure: Cc1ccc(NC(c2nnc(-c3ccccc3)o2)c2ccccc2F)c(Cl)c1 (stereo unspecified)
  GIV-Gai inh = 100
  Sa growth inh = 101
  Sa growth inh second temp = 85
  HCMV UL50-53 inh = -5
structure: C=C1COC(=O)N1Cc1ccccc1Cl
  GIV-Gai inh = 101
  Sa growth inh = 116
  Sa growth inh second temp = 95
  HCMV UL50-53 inh = -9
structure: CCOc1ccc(-c2csc3ncnc(Nc4cccc(O)c4)c23)cc1
  GIV-Gai inh = 106
  Sa growth inh = 87
  Sa growth inh second temp = 83
  HCMV UL50-53 inh = -36

Further records follow.
SMILES	GIV-Gai inh	Sa growth inh	Sa growth inh second temp	HCMV UL50-53 inh
C/C=C/c1c(F)c(F)c(Oc2ccc(OC)cc2)c(F)c1F	102	102	99	2
Nc1n[nH]c(CNC(=O)c2ccccc2)n1	110	115	86	/
CCCNC(=O)CCc1c(C)n(C)c2nc(-c3ccccc3)nn2c1=O	101	/	/	-5
COc1cc(OC)c(NC(=O)C2c3ccccc3C(=O)N(C)C2c2c[nH]c3ccccc23)cc1Cl (stereo unspecified)	101	92	82	-2
COc1ccc(NC(=O)c2nnc(CSCC(=O)NCc3cccnc3)s2)cc1	101	/	/	-21
O=C(c1ccc2c(c1)N(Cc1ccccc1)C(=O)c1ccccc1S2(=O)=O)N1CCOCC1	104	94	94	-38
CC(C)Oc1ccc(-c2noc(-c3cc(-c4ccccc4)n[nH]3)n2)cc1	102	/	/	-14
Cc1ccc(OCCn2cc(/C=C3/C(=O)Nc4cc(Cl)ccc43)c3ccccc32)cc1C	35*	94	81	/
Cc1cc(C(=O)N(CCC#N)Cc2cccs2)no1	100	87	86	-24
O=C(COC(=O)c1cc[n+]([O-])cc1)Nc1ccc(Cl)c(C(F)(F)F)c1	/	108	80	-47
Nc1ccccc1C1C(=O)CSC1=O (stereo unspecified)	/	102	96	-10
O=C(NCCN1CCOCC1)c1ccc2c(c1)CCN2S(=O)(=O)c1ccc(Br)cc1	102	88	80	-20
CCN(CC)c1ccc(C(=O)OCC(=O)N2CCCC2)cc1	/	101	90	-15
COC(=O)c1ccc(NC(=O)COC(=O)c2cc3ccccc3o2)cc1	/	90	80	-10
O=S1(=O)C=C(Nc2ccccc2)CC1	102	129	105	-12
Cn1nnc2c(N3CCCc4ccccc43)ncnc21	101	96	91	-18
COc1cc(C=C2C(=O)N(C)C(=O)N(C)C2=O)ccc1OCCOc1ccc(C)cc1	108	/	/	-12
CC1CCCN(S(=O)(=O)c2cccc3c(S(=O)(=O)N4CCCC(C)C4C)cccc23)C1C (stereo unspecified)	/	27	13	-17
Cc1ccc(C(=O)NCCc2nc(-c3ccccc3)n[nH]2)cc1	99	/	/	-14
COc1ccc(-n2nnnc2C2CCN(S(=O)(=O)c3ccc(C(C)(C)C)cc3)CC2)cc1	100&101	85	87	-32&-12
COC(=O)CN1C(=O)c2ccc(C(=O)OC)cc2C1=O	/	81	97	-87
CCc1ccc(-n2nc3cc(C)c(NC(=O)c4cccc5ccccc45)cc3n2)cc1	110	85	88	-22
O=C(C1CCN(S(=O)(=O)c2cccc3nsnc23)CC1)N1CCN(c2ccccc2Cl)CC1	99	95	85	-92
N#Cc1c(-c2ccc(Cl)cc2)c2c([nH]c1=O)-c1ccccc1SC2	107	82	59	-9
COc1ccc(-n2ccn(CC(=O)Nc3ccc4c(c3)OCO4)c2=O)cc1	99	/	/	-20
CCOc1ccccc1CNC(=O)c1ccc(CS(=O)Cc2cccc(Cl)c2)o1 (stereo unspecified)	101	116	82	/
CC(=O)Nc1cccc(-c2nn3c(C)nnc3s2)c1	104&100	113	94	-21
Cc1cccc(NCc2c(C#N)c3ccccc3n2C)c1	/	131	87	-10
Clc1ccc2nc(N3CCc4ccccc43)c3nncn3c2c1	101	85	72	5
O=C(c1cc(F)c(F)cc1Cl)N1CCN(c2ncccn2)CC1	/	91	79	-35

Source: PubChem
